Mtb bLac sens = beta-lactam sensitization of Mtb H37Rv. M. tuberculosis H37Rv growth with meropenem, percent inhibition; hits of this screen are not shown here. inhibition, % at 25 µM. 330,000 tested, 0.27% active. AID 434955;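 active = about 74% or more and at least 40 points above the plate without the antibiotic, then above 30% in a dose series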;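 also: growth measured after seven days incubation then overnight dye step; 0% = bacteria only wells and 100% = bacteria with antibiotic; twin plates without the antibiotic show which effects depend on it; some results filed as inactive read as strong as hits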
Active calls of the source: *. This is a subset. The share of hits here may be higher or lower than overall.

SMILES	Mtb bLac sens
O=C(NOCc1ccccc1)c1ccc(Cl)cc1	-8
Cc1ccc(OCCOC(=O)c2cc(S(=O)(=O)N3CCCCC3)ccc2N2CCOCC2)cc1	4
COc1ccccc1OCC(=O)OCC(=O)NC1CCCCC1	-5
O=C(CCl)Nc1ncc(S(=O)(=O)c2ccc([N+](=O)[O-])cc2)s1	22
Cn1c(N)c(C(=O)CSc2n[nH]c(-c3ccccc3)n2)c(=O)n(C)c1=O	4
O=C(COC(=O)CSc1ccc(Cl)cc1)Nc1ccc2[nH]c(=O)[nH]c2c1	-2
O=C(CCNC(=O)c1ccc(Cl)cc1)Nc1nc2ccccc2[nH]1	-2
COc1ccccc1NC(=O)CON=C(N)CC(=O)NC1CCCCC1	0
Cc1c(C2(O)CCCCC2)[nH]c2ccc(C(F)(F)F)cc12	96
Cc1cc(C(=O)CCC(=O)N2CCN(c3ccccc3O)CC2)c(C)s1	-10
COc1ccccc1N1CCN(CC(=O)Nc2ccccc2C(=O)NC(C)c2ccccc2)CC1 (centres undefined)	3
COc1ccc(CC(=O)N2CCN(c3ccccc3F)CC2)cc1OC	-6
Cc1onc(-c2c(F)cccc2Cl)c1C(=O)NCc1ccc(S(N)(=O)=O)cc1	-3
Cc1cccc(C(=S)N2CCOCC2)n1	-5
Cc1ccc([N+](=O)[O-])cc1S(=O)(=O)Nc1ccc(C(=O)N2CCN(C(=O)c3ccco3)CC2)cc1	-5
COC(=O)C1=C(c2cccc(C#N)c2)C[C@@H]2CC[C@H]1N2C(=O)NCCOc1ccccc1	-3
CC(=O)Nc1ccc(S(=O)(=O)N(C)C2CCN(C)CC2)cc1	-4
Cc1cc(Br)ccc1NC(=O)CSCc1c(C)noc1C	-3
O=C(CN1CCN(S(=O)(=O)c2ccc(F)c(Cl)c2)CC1)N1CCOCC1	-9
Cc1ccc(NC(=O)COC(=O)c2cc(=O)c3ccccc3o2)c(Br)c1	1
O=C(O)c1cccc2c1C(=O)c1cc(Br)ccc1S2(=O)=O	-11
COc1ccc(C)cc1S(=O)(=O)NNc1nc(C)cc(C)n1	1
c1ccc(-c2ccncc2)cc1	0
CN(c1ccc(OC(=O)c2ccc(-n3cncn3)c([N+](=O)[O-])c2)cc1)S(=O)(=O)c1ccccc1	11
C=CC[C@@H](CC(=O)N(CCO)Cc1ccccc1)C(=O)N[C@H](COC(=O)[C@@H](CC=C)Cc1ccc(F)cc1)c1ccccc1	-8
O=C(COC(=O)/C=C/c1ccccc1)NC1CCCC1	2
O=C(c1cc(C2CC2)nn1-c1ccccc1)N1CCN(c2ccccc2O)CC1	4
O=C(N/C(=C\c1cccc(Br)c1)C(=O)N1CCCCC1)c1ccco1	-6
CC(=O)c1ccc(NC(=O)C2CCCN(S(=O)(=O)c3cccc4nonc34)C2)cc1 (centres undefined)	14
O=C(COC(=O)COc1ccccc1)NCCC1=CCCCC1	3
COc1cccc(OC)c1C(=O)Nc1cccc(S(=O)(=O)Nc2ccccc2Cl)c1	-10
COc1ccc(S(=O)(=O)N2CCN(C(=O)c3cc(C)nc4ccccc34)CC2)cc1OC	-6
COC12CCC3(CC1C(C)(O)C(C)(C)C)[C@H]1Cc4ccc(OC5OC(C(=O)O)[C@@H](O)C(O)[C@H]5O)c5c4[C@@]3(CCN1CC1CC1)C2O5 (some centres undefined)	-4
CCc1ccccc1NC(=O)CN(C)C(=O)c1cc(C2CC2)nc2c1cnn2C(C)C	-2
CCN(CC)c1ccc(C(=O)NNC(=O)CCNC(=O)c2ccccc2)cc1	6
CCCCN(C(=O)c1cc(-c2ccco2)nc2ccccc12)c1c(N)n(CCC)c(=O)[nH]c1=O	-1
CC1(C)Cc2cccc(OCC(=O)Nc3cc(S(C)(=O)=O)ccc3Cl)c2O1	-4
COc1cccc(NC(=O)COC(=O)c2ccc3ccccc3n2)c1	-1
CC(NC(=O)CCc1ccccc1)c1ccc2c(c1)OCO2 (centres undefined)	-5
Cn1c(N)c(C(=O)COC(=O)COc2ccc(C#N)cc2)c(=O)n(C)c1=O	-5
NS(=O)(=O)c1ccc(N2CCOCC2)c(C(=O)NCCCSc2ccccc2)c1	2
N#Cc1ccc(C#Cc2ccc3oc4ccccc4c(=O)c3c2)cc1	-5
CC(=O)Nc1ccc(C(=O)COC(=O)CCc2ccccc2)c(F)c1	-7
O=C(NCc1ccc(OC(F)(F)F)cc1)c1cccc2c1C(=O)c1ccc(N3CCC(Cc4ccccc4)CC3)cc1S2(=O)=O	-6
Cc1ccc(S(=O)(=O)N2[C@@H](c3ccccc3)C(C(=O)O)=CC[C@H]2c2ccc3c(c2)OCO3)cc1	3
COc1ccc2[nH]cc(CCNC(=O)COc3cc(C)cc4oc(=O)cc(C)c34)c2c1	-3
O=C1CC[C@H](O)CCN1[C@H](CSc1ccc(Br)cc1)Cc1ccccc1	2
CCc1ccccc1NC(=O)CNC(=O)CNC(=O)c1cccs1	3
Clc1cc(Cl)c(-c2cc(Cl)c(Cl)cc2Cl)cc1Cl	3
CC1(C)CC(=O)C=C(c2cccc(O)c2)C1	2
Cc1ccc(S(=O)(=O)N2CCN(C(=O)CN3C(=O)CNC3=O)CC2)cc1	-6
CC(C)(C)OC(=O)[C@H](NC(=O)OCc1ccccc1)c1ccccc1	8
CNC(=O)c1ccc(CN(C)CC(=O)Nc2ccccc2C(=O)NC2CC2)cc1	9
CCc1noc(C)c1C(=O)OCC(=O)N1CCc2ccccc21	-3
O=C(Nc1ccc(SC(F)F)cc1)c1cc(-c2ccncc2)nc2ccccc12	-9
CCCn1c(N)c(C(=O)CN(C)CC(=O)Nc2ccc(F)cc2)c(=O)[nH]c1=O	1
N#Cc1ccccc1OCC(=O)NCc1ccccc1CN1CCCC1	7
Cc1sc2ncnc(SCC(=O)Nc3ccc(CN4CCCC4)cc3)c2c1C	-5
COc1ccc(-c2sc3ccccc3c2-c2ccc(OCCN3CCOCC3)cc2)cc1	44
COc1ccccc1C(CNC(=O)c1ccc(C)c(S(=O)(=O)N2CCCCC2)c1)N(C)C (centres undefined)	-3

Shown bar-delimited: entries from further up
canonical_smiles | Mtb bLac sens
Cc1onc(-c2c(F)cccc2Cl)c1C(=O)NCc1ccc(S(N)(=O)=O)cc1 | -3
Cc1cccc(C(=S)N2CCOCC2)n1 | -5
Cc1ccc([N+](=O)[O-])cc1S(=O)(=O)Nc1ccc(C(=O)N2CCN(C(=O)c3ccco3)CC2)cc1 | -5

New compounds follow.
SMILES	Mtb bLac sens
COc1ccc(C2NC(=O)CCC2[N+](=O)[O-])c(OC)c1 (centres undefined)	-7
COc1cc2cc(CCCOC(=O)c3ccc(C(F)(F)F)cc3)oc(=O)c2cc1OC	-6
CCCN(CC(=O)Nc1ccccc1OC)C(=O)c1ccc2c(c1)NC(=O)C(C)S2 (centres undefined)	-4
CC(C)(C)c1ccc(S(=O)(=O)N2CCNC(=O)C2)cc1	3
Cc1cc(C(=O)NCC(c2ccco2)N2CCCC2)c2ccccc2n1 (centres undefined)	-1
O=C(OCC(=O)N1CCCc2ccccc21)c1cc(S(=O)(=O)N2CCOCC2)ccc1O	3
COCC1CCN(C(=O)C2CCC(=O)N(CCc3cccc(F)c3)C2)CC1 (centres undefined)	-7
CN1CC(=O)N(CC(=O)Nc2cccc3ccccc23)C1=O	0
CN(Cc1ccccc1)C(=O)C1CCCN1S(=O)(=O)c1ccc(Cl)cc1 (centres undefined)	4
N#Cc1ccc(-c2c(-c3ccccc3)ncc3cc(F)ccc23)cc1	41
O=C(COC(=O)c1ccc(Cl)cc1)NC1CCCCCC1	3
O=C(Cn1cnc2ccccc21)OCC(=O)N1CCCCC1	-6
CCCNC(=O)C(Cc1ccc(Cl)cc1)NC(=O)c1ccc(-c2ccccc2)cc1 (centres undefined)	-3
CCN1CCN(C(=O)C(Cc2ccccc2)NC(=O)c2ccc(Cl)c(S(=O)(=O)N(C)C)c2)CC1 (centres undefined)	-3
Cc1cc(C)n2nc(SC(C)C(=O)N(C)c3ccccc3)nc2n1 (centres undefined)	3
CSc1ncccc1C(=O)Nc1cccc(S(=O)(=O)N(C)c2ccccc2)c1	5
CCOC(=O)[C@H]1[C@H]2COc3ccc(Br)cc3[C@@H]2N2C(=O)c3cc(OC)c(OC)cc3NC(=O)[C@@]12C	77
O=C(COC(=O)c1ccc(Br)o1)c1ccc(S(=O)(=O)N2CCCCC2)cc1	-2
O=c1c2ccccc2cnn1Cc1ccc(Cl)c(Cl)c1	10
COC(=O)C1=C(c2ccc(F)cc2OCc2ccccc2)C[C@@H]2CC[C@H]1N2C(=O)NC1CCCCC1	1
Cc1ccc(NC(=O)CCc2ccccc2)cc1S(=O)(=O)N1CCOCC1	-5
O=C(Nc1ccc(S(=O)(=O)N2CCCC2)cc1)c1cccc(OC(F)F)c1	-6
CCn1cnnc1SCC(=O)c1c(N)n(C2CC2)c(=O)[nH]c1=O	-11
Cc1nn(CC(=O)N(CC(C)C)C2CCS(=O)(=O)C2)c(C)c1[N+](=O)[O-] (centres undefined)	2
COC(=O)C1=C(c2ccc(-c3ccccc3)c(F)c2)C[C@@H]2CC[C@H]1N2C(=O)NCC1CC1	3
Cc1cc(C)n2nc(C(=O)OCC(=O)Nc3cc(Cl)ccc3C)nc2n1	4
Cc1cc(=O)oc2cc(OCC(=O)NC3CCCCC3)c(Cl)cc12	28
NC(=O)c1ccc(NC(=O)COC(=O)CCN2C(=O)c3ccccc3C2=O)cc1	6
COc1ccc(-c2c(C#Cc3ccsc3)c3cc(-c4ccc5[nH]ccc5c4)ccc3n2C)cc1	-2
CCN(CC)S(=O)(=O)c1ccc(C(=O)N2CCN(C(=O)c3ccco3)CC2)cc1	-10
O=C(Cc1cccc(NC(=O)C2CCCN(C(=O)C3CC3)C2)c1)Nc1cccc(C(=O)N2CCCC2)c1 (centres undefined)	6
CCOC(=O)C1CCN(C(=O)COC(=O)/C=C/c2ccc([N+](=O)[O-])cc2)CC1	46
N#Cc1ccc(C23OCCN2CCn2nc4ccccc4c23)cc1 (centres undefined)	-2
COc1ccc(CCNC(=O)COC(=O)Cc2ccccc2[N+](=O)[O-])cc1	2
CC(=O)NS(=O)(=O)c1ccc(N2C(=O)CC(Sc3nccc(C)n3)C2=O)cc1 (centres undefined)	-3
CCN(Cc1nc2ccccc2c(=O)[nH]1)C(=O)C1CC(=O)N(c2cccc3ccccc23)C1 (centres undefined)	1
O=C(O)C1CCCCN1C(=O)c1cc2c(s1)CCCCC2 (centres undefined)	0
O=C1CS/C(=N/N=C/c2ccccc2)N1c1ccc(O)cc1	-1
Cc1ccc2c(c1)C1CN(C)CCC1N2S(=O)(=O)c1cccc(C(F)(F)F)c1 (centres undefined)	-8
CC1(C2CC2)NC(=O)N(CC(=O)Nc2cc(S(=O)(=O)N3CCCCC3)ccc2Cl)C1=O (centres undefined)	-5
O=C(CCNS(=O)(=O)c1c(Cl)cccc1Cl)N1CCCC1	-11
Cn1cncc1C#Cc1ccc2c(=O)c3ccccc3oc2c1	3
COc1ccc(NC(=O)COC(=O)c2ccc(C)c(S(=O)(=O)N3CCCCC3)c2)cc1	-3
CN(C)S(=O)(=O)c1ccc(C(=O)N2CCN(C(=O)C3CCCO3)CC2)cc1 (centres undefined)	0
CCC(C)c1ccccc1NC(=O)C(C)Sc1n[nH]c(N)n1 (centres undefined)	-4
Cc1cc(NC(=O)CSCC(=O)OCC(=O)Nc2ccc(OC(F)F)cc2)no1	2
CN(c1ccccc1)S(=O)(=O)c1ccc(C(=O)N2CCN(c3ccccc3F)CC2)cc1	-11
O=C(COC(=O)c1cccc(F)c1)Nc1ccc2c(c1)OCCO2	0
Cc1ccc(NC(=O)CN(C)C(=O)c2cc(C)on2)cc1	-5
Cc1nc2ccc(NC(=O)[C@@H](NC(=O)c3c(F)cccc3F)C(C)C)cc2s1	72
O=C(O)C1CCN(C(=O)CSc2nnc(-c3ccccc3)o2)CC1	-4
Cc1sc2ncnc(SCC(=O)Nc3ncccc3O)c2c1C	-5
COc1ccccc1OCCn1cc(C(=O)C(C)C)c2ccccc21	4
CN(CC(=O)Nc1ccc(F)cc1)CC(=O)N1CCCCCC1	2
C[C@@H]1CN([C@H](C)CO)C(=O)c2cc(NC(=O)C3CCCCC3)ccc2O[C@@H]1CN(C)Cc1ccncc1	-4
CN(CC(=O)Nc1ccc(Cl)c(C(F)(F)F)c1)C(=O)CCc1nc2ccccc2c(=O)[nH]1	0
CCCCn1c(N)c(N(CCC(C)C)C(=O)COC(=O)c2cccnc2OCC)c(=O)[nH]c1=O	6

Compounds listed so far that contain an aryl methoxy group:
SMILES	Mtb bLac sens
COc1ccccc1OCC(=O)OCC(=O)NC1CCCCC1	-5
COc1ccccc1NC(=O)CON=C(N)CC(=O)NC1CCCCC1	0
COc1ccccc1N1CCN(CC(=O)Nc2ccccc2C(=O)NC(C)c2ccccc2)CC1 (centres undefined)	3
COc1ccc(CC(=O)N2CCN(c3ccccc3F)CC2)cc1OC	-6
COc1ccc(C)cc1S(=O)(=O)NNc1nc(C)cc(C)n1	1
COc1cccc(OC)c1C(=O)Nc1cccc(S(=O)(=O)Nc2ccccc2Cl)c1	-10
COc1ccc(S(=O)(=O)N2CCN(C(=O)c3cc(C)nc4ccccc34)CC2)cc1OC	-6
COc1cccc(NC(=O)COC(=O)c2ccc3ccccc3n2)c1	-1
COc1ccc2[nH]cc(CCNC(=O)COc3cc(C)cc4oc(=O)cc(C)c34)c2c1	-3
COc1ccc(-c2sc3ccccc3c2-c2ccc(OCCN3CCOCC3)cc2)cc1	44
COc1ccccc1C(CNC(=O)c1ccc(C)c(S(=O)(=O)N2CCCCC2)c1)N(C)C (centres undefined)	-3
COc1ccc(C2NC(=O)CCC2[N+](=O)[O-])c(OC)c1 (centres undefined)	-7
COc1cc2cc(CCCOC(=O)c3ccc(C(F)(F)F)cc3)oc(=O)c2cc1OC	-6
CCCN(CC(=O)Nc1ccccc1OC)C(=O)c1ccc2c(c1)NC(=O)C(C)S2 (centres undefined)	-4
CCOC(=O)[C@H]1[C@H]2COc3ccc(Br)cc3[C@@H]2N2C(=O)c3cc(OC)c(OC)cc3NC(=O)[C@@]12C	77
COc1ccc(-c2c(C#Cc3ccsc3)c3cc(-c4ccc5[nH]ccc5c4)ccc3n2C)cc1	-2
COc1ccc(CCNC(=O)COC(=O)Cc2ccccc2[N+](=O)[O-])cc1	2
COc1ccc(NC(=O)COC(=O)c2ccc(C)c(S(=O)(=O)N3CCCCC3)c2)cc1	-3
COc1ccccc1OCCn1cc(C(=O)C(C)C)c2ccccc21	4

High-throughput results from PubChem.
